Compound activity: PubChem, ICCB-Longwood Screening Facility, Harvard Medical School
Polio RdRp inh: poliovirus RNA polymerase inhibition. poliovirus polymerase elongation, fluorescence polarization; stronger effect = lower value. 150,000 compounds, 0.66% hits. P03300. % elongation, % (compound at 16.7 µg/mL); in the data active means % elongation below about 90%; further: some results filed as inactive read as strong as hits
Target sequence (P03300 1749-2209 limits assumed): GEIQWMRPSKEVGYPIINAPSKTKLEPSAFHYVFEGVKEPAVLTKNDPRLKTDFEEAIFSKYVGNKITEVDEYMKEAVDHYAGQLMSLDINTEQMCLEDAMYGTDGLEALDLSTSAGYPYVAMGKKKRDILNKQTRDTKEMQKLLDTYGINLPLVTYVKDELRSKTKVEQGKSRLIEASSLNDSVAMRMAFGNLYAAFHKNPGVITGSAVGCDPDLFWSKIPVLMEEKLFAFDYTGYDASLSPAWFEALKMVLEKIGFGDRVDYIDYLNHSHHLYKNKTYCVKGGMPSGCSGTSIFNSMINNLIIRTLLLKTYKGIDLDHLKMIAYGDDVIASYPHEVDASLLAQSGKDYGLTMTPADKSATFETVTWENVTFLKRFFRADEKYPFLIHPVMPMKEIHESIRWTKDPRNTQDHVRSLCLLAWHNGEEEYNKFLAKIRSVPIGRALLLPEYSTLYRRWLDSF
Polio RdRp inh intensity: second read-out of Polio RdRp inh, no call of its own (marks repeat the call); % elongation; measured here: total intensity read-out; formula for this scale not given here;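 total fluorescence in place of polarization; lower means less elongation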
* marks the source's active call; other numbers are inactive results. Only part of the results is shown. The share of hits here may be higher or lower than overall.

SMILES | Polio RdRp inh | Polio RdRp inh intensity
CCc1ccc(NC(=O)CSc2nc3c(sc4ccccc43)c(=O)n2CCCOC)cc1 | 97 | 106
Cc1cc(-n2c(C)nc3ccccc3c2=O)ccc1NC(=O)c1ccc([N+](=O)[O-])cc1 | 105 | 113
Cc1ccc(Cl)cc1N1CCN(CCCNc2ncnc3onc(-c4ccc(Cl)cc4)c23)CC1 | 107 | 109
CCOc1ccc(CC(=O)NCCc2sc3nc(-c4ccc(F)cc4)nn3c2C)cc1 | 110 | 109
COc1cccc(CNC(=O)Cn2c(=O)c3cccn3c3ccc(F)cc32)c1OC | 107 | 95
CCn1c(=O)n(CC)c2cc(N3CCCCC3)c(NC(=O)Nc3ccccc3C(F)(F)F)cc21 | 110 | 111
CC(C)(C)c1ccc(C(=O)Nc2ccc(-c3nc4cc(Cl)ccc4o3)cc2)cc1 | 108 | 108
c1ccc(CNc2nc3c(-c4ccccc4)nnn3c3ccccc23)cc1 | 105 | 106
O=C(CSc1nccn1-c1ccc(F)cc1)Nc1nc2ccccc2s1 | 111 | 108
CCOc1ccc(CNC(=O)c2ccc3nc(CC)c(CC)nc3c2)cc1OC | 104 | 111
Cc1ccc(Cl)cc1Nc1nn2c(=O)c3ccc(C(=O)NC4CCC(C)CC4)cc3nc2s1 (stereo not given) | 110 | 107
COc1cc2nc(NC(=O)c3ccc(S(=O)(=O)N4CCc5ccccc54)cc3)sc2cc1OC | 106 | 108
CCOC(=O)c1c(-c2ccc(OC)c(OC)c2)csc1NC(=O)c1ccccc1F | 107 | 111
CCOc1ccc(C(=O)Nc2ccc(NC(=O)c3ccccc3)cc2)cc1Br | 105 | 107
CCC(=O)N1CCc2cc(Br)cc(S(=O)(=O)N3CCN(c4ccc(C)cc4)C(C)C3)c21 (stereo not given) | 105 | 106
CCc1ccc(Nc2cc(C)nc3nc(Cc4ccc(Cl)cc4)nn23)cc1 | 103 | 97
CCCCOC(=O)c1ccc(-n2nnc3c(sc4nc(C)cc(C)c43)c2=O)cc1 | 112 | 110
COc1ccc(C2CC(=O)N3CN(C4CCCCC4)CSC3=C2C#N)cc1 (stereo not given) | 75* | 74*
CCOCCc1nn2c(=O)cc(COC(=O)c3ccccc3Br)nc2s1 | 107 | 113
CCOC(=O)c1c(C)oc2nc(C)nc(NCCc3ccc(OC)c(OC)c3)c12 | 110 | 109
COC(=O)c1c(N)n(-c2ccc(OC)c(Cl)c2)c2nc3ccccc3nc12 | 105 | 111
CCOCCCNC(=O)C(=O)Nc1c2c(nn1-c1ccccc1)CSC2 | 106 | 109
CCCOc1ccc(C2c3c(oc4ccccc4c3=O)C(=O)N2c2ccc(C)cn2)cc1OCC (stereo not given) | 106 | 107
CCOC(=O)N1CCc2c(sc3c2c(=O)n(-c2ccc(CC)cc2)c(=O)n3Cc2ccc(F)cc2Cl)C1 | 103 | 105
CCOc1ccc(CNC(=O)c2cccn2-c2nnc(N3CCCCC3)s2)cc1OC | 101 | 104

The final 6 entries of the section above are carried over, then new ones follow.
SMILES | Polio RdRp inh | Polio RdRp inh intensity
CCOC(=O)c1c(C)oc2nc(C)nc(NCCc3ccc(OC)c(OC)c3)c12 | 110 | 109
COC(=O)c1c(N)n(-c2ccc(OC)c(Cl)c2)c2nc3ccccc3nc12 | 105 | 111
CCOCCCNC(=O)C(=O)Nc1c2c(nn1-c1ccccc1)CSC2 | 106 | 109
CCCOc1ccc(C2c3c(oc4ccccc4c3=O)C(=O)N2c2ccc(C)cn2)cc1OCC (stereo not given) | 106 | 107
CCOC(=O)N1CCc2c(sc3c2c(=O)n(-c2ccc(CC)cc2)c(=O)n3Cc2ccc(F)cc2Cl)C1 | 103 | 105
CCOc1ccc(CNC(=O)c2cccn2-c2nnc(N3CCCCC3)s2)cc1OC | 101 | 104
Cc1cccc(N(C)C(CNS(=O)(=O)c2ccccc2)c2ccccc2)c1 (stereo not given) | 110 | 112
CC1=C(c2ccc(Cl)cc2)S(=O)(=O)N=C1N1CCN(c2cc(C)ccc2C)CC1 | 105 | 92
CC(C)Oc1ccc(CNC(=O)Cc2ccc(NC(=O)N3CCSc4ncccc43)cc2)cc1 | 110 | 111
CCOc1ccc(CNC(=O)CCCn2c(=O)c3cccn3c3ccc(F)cc32)cc1 | 114 | 110
CCCCNC(=O)CCc1c(C)nc2cc(-c3ccccc3)nn2c1C | 105 | 109
COc1ccc(-c2nc3ccccc3o2)cc1NC(=O)COc1ccc(C(C)(C)C)cc1 | 103 | 104
COc1ccc(-c2c3c(=O)n(C)c(=O)n(C)c3c3n2-c2ccccc2NC3c2ccccc2OC)cc1 (stereo not given) | 108 | 109
CCOC(=O)c1ccc(N2C(=O)c3n[nH]c(-c4cccs4)c3C2c2ccc(C)cc2)cc1 (stereo not given) | 104 | 106
O=C(Cn1c(=O)oc2cc(S(=O)(=O)N3CCCC3)ccc21)NCc1ccc(F)cc1 | 106 | 107
COc1ccccc1NC(=O)C1=C(C)Nc2nc(SCc3ccccc3)nn2C1c1cccc(O)c1 (stereo not given) | 104 | 109
O=C(Nc1nc2ccc(F)cc2s1)c1nc(S(=O)(=O)Cc2ccccc2F)ncc1Cl | 112 | 100
COc1ccc(C2Nc3ccccc3-n3c(-c4ccccc4)c4c(=O)n(C)c(=O)n(C)c4c32)cc1 (stereo not given) | 112 | 107
CCC(C)n1c(SCc2c(F)cccc2Cl)nc2ccsc2c1=O (stereo not given) | 117 | 117
COc1ccc(OC)c(CNc2ncnc3onc(-c4ccc(Cl)cc4)c23)c1 | 111 | 113
O=C(Nc1ccc(Cl)cc1Cl)c1cc(S(=O)(=O)NCc2ccc3c(c2)OCO3)ccc1F | 110 | 109
Cc1sc2c(c1C)c(=O)n(-c1cccc(C(F)(F)F)c1)c(=O)n2Cc1ccc(F)cc1 | 105 | 106
CSc1ccc(CCNC(=O)CCn2c(=O)c3cccn3c3ccc(F)cc32)cc1 | 108 | 109
Cc1ccc(NC(=O)CCc2c(C)nc3nc(C)nn3c2C)c(Cl)c1 | 109 | 112
Cc1ccccc1Cn1ccn(-c2ccc(F)c(F)c2)c(=O)c1=O | 107 | 104
Cc1ccc(C(=O)Nc2c(-c3ccccc3)nc3ccccn23)cc1C | 102 | 103
CC1CCN(c2nc(-c3ccc(Br)cc3)nc3ccccc23)CC1 | 109 | 111
COCCCNC(=O)C1CCN(Cc2cc3ccccc3n2Cc2cccc(Cl)c2)CC1 | 111 | 113
CCOc1ccc(OCC)c(NC(=O)c2ccc(-c3ccccc3)s2)c1 | 105 | 106
COc1ccc(CCNC(=O)CCCCCn2c(SCC(N)=O)nc3cc4c(cc3c2=O)OCO4)cc1OC | 108 | 109
CCN(CC)c1ccc2cc(-c3nnc(-c4cccc(Cl)c4)o3)c(=O)oc2c1 | 90 | 245

Rewritten with tabs: part of the list above
Structure	Polio RdRp inh	Polio RdRp inh intensity
Cc1cccc(N(C)C(CNS(=O)(=O)c2ccccc2)c2ccccc2)c1 (stereo not given)	110	112
CC1=C(c2ccc(Cl)cc2)S(=O)(=O)N=C1N1CCN(c2cc(C)ccc2C)CC1	105	92
CC(C)Oc1ccc(CNC(=O)Cc2ccc(NC(=O)N3CCSc4ncccc43)cc2)cc1	110	111
CCOc1ccc(CNC(=O)CCCn2c(=O)c3cccn3c3ccc(F)cc32)cc1	114	110
CCCCNC(=O)CCc1c(C)nc2cc(-c3ccccc3)nn2c1C	105	109

(list continues)
SMILES | Polio RdRp inh | Polio RdRp inh intensity
CCOc1ccc(CCNC(=O)c2cc3cc4ccc(OC)cc4nc3s2)cc1OCC | 115 | 116
Cc1ccc(CCNC(=O)c2ccc(CNS(=O)(=O)c3ccc(F)cc3)cc2)cc1 | 98 | 96
Cc1cc(C)n(C(C)CC(=O)NCc2ccc(Cl)cc2)n1 (stereo not given) | 106 | 115
CC1CCN(C(=O)Cn2cc(SCC(=O)NCc3ccc(F)cc3)c3ccccc32)CC1 | 111 | 105
COC(=O)c1cc2sccc2n1Cc1nc(-c2ccc(C)cc2)oc1C | 99 | 104
COCCNC(=O)CCCn1c(=O)c2cc(OC)c(OC)cc2n(CC(=O)Nc2ccc(F)cc2)c1=O | 102 | 103
Cc1ccc(CNC(=O)c2ccc(Cn3c(SCc4ccccc4F)nc4cccnc43)cc2)cc1 | 113 | 112
COc1ccccc1CNc1ccc(-c2nc(C(C)C)no2)cc1[N+](=O)[O-] | 109 | 114
CC(C)CCn1c(Oc2ccccc2F)nc2c1c(=O)n(C)c(=O)n2C | 105 | 98
O=C(NCc1ccc(Cl)cc1)C(=O)NCC(c1cccs1)S(=O)(=O)c1cccs1 (stereo not given) | 109 | 104
CCOc1ccc(C(=O)Nc2ccc(OCc3cc(=O)n4cccc(C)c4n3)cc2)cc1 | 106 | 107
O=C(Nc1ccccc1)N(Cc1cccs1)c1ccc(Cl)cc1 | 106 | 100
Cc1ccc(OCC(=O)Nc2cccc(OCc3cc(=O)n4ccccc4n3)c2)cc1C | 109 | 112
COc1ccccc1N1CCN(c2ncnc3c2cnn3-c2cccc(Cl)c2)CC1 | 113 | 116
Cc1ccc2ncc3c(-c4ccc(F)cc4)nn(CC(=O)Nc4ccccc4C)c3c2c1 | 108 | 114
Cc1ccc(NC(=O)CN2C(=O)COc3ccc(S(=O)(=O)NC4CCCC4)cc32)cc1N(C)C | 103 | 102
COc1ccc(C(C)NC(=O)CN(c2cc(OC)ccc2OC)S(=O)(=O)c2ccccc2)cc1 (stereo not given) | 107 | 109
Cc1cc(C)c(NC(=O)C2CCN(c3nc4ccccc4n4cccc34)CC2)c(C)c1 | 109 | 114
Nc1cc(=O)nc(SCC(=O)Nc2ccc(F)cc2)n1-c1cccc(Cl)c1 | 110 | 109
COc1ccc(NC(=O)c2c(NC(=O)COc3ccc(Cl)cc3)sc3c2CCCCC3)cc1 | 106 | 106
Cc1cn2c(=O)cc(COC(=O)c3cccc(NC(=O)c4ccc(C(C)(C)C)cc4)c3)nc2s1 | 106 | 114
COc1cc(C2C=C(C(=O)O)Nc3ncnn32)ccc1O (stereo not given) | 110 | 109
O=C(CCCn1c(=O)c2ccccc2n(CC(=O)Nc2cccc(Cl)c2)c1=O)NCc1ccc2c(c1)OCO2 | 108 | 115
Cc1oc(-c2ccccc2Cl)nc1Cn1c(SCc2cccc(F)c2)nc2cccnc21 | 109 | 114
O=C(NCc1ccc(Cl)cc1)C1CCN(S(=O)(=O)c2ccccc2)CC1 | 104 | 107
SMILES | Polio RdRp inh | Polio RdRp inh intensity
Cc1ccccc1C(=O)N1CCCCC1CCN1CCCCC1 (stereo not given) | 110 | 108
COc1cccc2c1cc1c(=O)n(CC(=O)N3CCN(c4cccc(C)c4C)CC3)nc(C)n12 | 107 | 108
O=C(Oc1ccccc1F)c1nc(SCc2ccc(F)cc2)ncc1Cl | 106 | 109
COc1ccc(-c2c(C)c3ccc(O)c(CN4CCN(C)CC4)c3oc2=O)cc1OC | 101 | 104
O=C(CC1Sc2ccccc2NC1=O)Nc1cccc(C(F)(F)F)c1 (stereo not given) | 106 | 104
Cc1ccc(-c2nn3c(C)nnc3c3ccccc23)cc1S(=O)(=O)NC(C)(C)CO | 101 | 107
Cc1ccc2cccc(NC(=O)c3ccc(-c4ccc(Cl)cc4Cl)o3)c2n1 | 105 | 107
COc1ccc(OC)c(CCNC(=O)C2CCN(c3ncnc4c3nc3n4CCCCC3)CC2)c1 | 104 | 107
COC(=O)C(CCSC)NC(=O)c1cc2c(n(-c3ccc(Cl)cc3)c1=O)CCCC2=O (stereo not given) | 105 | 108
COc1cccc(-c2nc(S(=O)(=O)c3ccccc3)c(N3CCCCC3)o2)c1 | 103 | 109
CCC1=C(c2ccc(C)cc2)S(=O)(=O)N=C1N1CCC(C(=O)NCCc2ccc(Cl)cc2)CC1 | 109 | 112
CCC(=O)N1CCc2cc(S(=O)(=O)CCC(=O)NCc3ccccc3OC)ccc21 | 114 | 113
COc1cccc(-c2nc(SCc3cc(=O)c4cc(Cl)ccc4[nH]3)n[nH]2)c1 | 106 | 96
CC(=O)Nc1c(C)nn(-c2ccccc2)c1N1CCC(C(=O)Nc2ccccc2C(F)(F)F)CC1 | 108 | 114
COc1ccccc1CNC(=O)c1cnc2c(-c3ccccc3)c(C)nn2c1C | 111 | 115
O=S(=O)(NCCS(=O)(=O)N1CCN(c2ccccc2)CC1)c1ccc(Br)cc1 | 104 | 104
O=C(NCCc1cccs1)c1ccc(Cn2c(SCc3ccccc3)nc3cccnc32)cc1 | 110 | 109
CCc1ccccc1NS(=O)(=O)c1ccc2nc(-c3ccccc3)[nH]c2c1 | 109 | 107
Cc1cc(N2CCN(C)CC2)nc2ccc(NC(=O)Nc3ccccc3Br)cc12 | 103 | 109
CN(C)S(=O)(=O)N(CC(=O)Nc1ccc(C(F)(F)F)cc1)c1ccccc1 | 109 | 110
CCOC(=O)c1cc2c(=O)n3ccccc3nc2n(Cc2ccco2)c1=NC(=O)c1ccc(C(C)(C)C)cc1 | 106 | 113
CCOC(=O)c1ccccc1NC(=O)CSc1cn(CC(=O)N2CCCCCC2)c2ccccc12 | 119 | 111
CCC(=O)Nc1cc(C(=O)NCc2ccc(C)cc2)ccc1S(=O)(=O)c1ccc(C)cc1 | 103 | 99
COc1ccc(-c2nc(C)c(CCNC(=O)Cc3ccc(F)cc3)s2)cc1OC | 111 | 106
CCCCN(C)C(=O)c1ccc2c(c1)N(Cc1cccc(F)c1)C(=O)c1ccccc1S2 | 112 | 116
Cc1ccc(C(=O)c2oc3ccccc3c2NC(=O)Cc2coc3c(C)c(C)ccc23)cc1 | 113 | 114
CC(CNC(=O)Cn1c(-c2cccs2)cc2ccccc21)c1ccccc1 (stereo not given) | 111 | 108
CCOc1ccc(-c2cn3c(n2)sc2cc(C(=O)NC(C)C45CC6CC(CC(C6)C4)C5)ccc23)cc1 (stereo not given) | 108 | 105

A draw from above in order of heavy-atom count, highest first.
SMILES | Polio RdRp inh | Polio RdRp inh intensity
COc1ccc(OC)c(CCNC(=O)C2CCN(c3ncnc4c3nc3n4CCCCC3)CC2)c1 | 104 | 107
Cc1ccc(-c2nn3c(C)nnc3c3ccccc23)cc1S(=O)(=O)NC(C)(C)CO | 101 | 107
O=S(=O)(NCCS(=O)(=O)N1CCN(c2ccccc2)CC1)c1ccc(Br)cc1 | 104 | 104
Cc1ccccc1C(=O)N1CCCCC1CCN1CCCCC1 (stereo not given) | 110 | 108
